Screening data as filed in PubChem BioAssay.
Vif A3G = inhibitors of Vif binding to APOBEC3G peptide, primary screen, biochemical, TR-FRET, GST-Vif 1-94, biotin-A3G peptide, dose response retest (AID 1117319); Virion infectivity factor (Human immunodeficiency virus type 1 group M subtype B (isolate …; TR-FRET GST-Vif / biotin-A3G peptide binding; higher % means a stronger effect; test concentration not given here; strong numbers were not always called active; hit rate 0.57% among 260,000; inhibition, %; hits with a dose series show IC50 in µM;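 active = above the screen mean plus three standard deviations and confirmed in dose response; inconclusive = results disagree or hit not tested in dose response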;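 note: Vif residues 1-94 fused to GST binding biotinylated APOBEC3G peptide 110-148; 0% = full assay without inhibitor and 100% = GST in place of GST-Vif; retest series ran down from 100 µM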
B2AR ag = beta2AR agonists driving receptor internalization, primary screen, cell-based, FAP fluorogen, flow cytometry | Beta-2 adrenergic receptor (Homo sapiens), P07550 | Am2.2-beta2AR cells; reference of the scale not given here | response, % (no concentration beside the values) | hit rate 0.43% among 340,000 | AID 504454, 2011;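 active = response above a set limit, near 3 SD of response in nonfluorescent compounds, cut at about 42% in these data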;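 note: stock transfer was 100 nL into about 11 µL; a reference agonist was the positive control; negative values mostly stem from fluorescent compounds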
Target sequence (P07550 whole entry, looked up): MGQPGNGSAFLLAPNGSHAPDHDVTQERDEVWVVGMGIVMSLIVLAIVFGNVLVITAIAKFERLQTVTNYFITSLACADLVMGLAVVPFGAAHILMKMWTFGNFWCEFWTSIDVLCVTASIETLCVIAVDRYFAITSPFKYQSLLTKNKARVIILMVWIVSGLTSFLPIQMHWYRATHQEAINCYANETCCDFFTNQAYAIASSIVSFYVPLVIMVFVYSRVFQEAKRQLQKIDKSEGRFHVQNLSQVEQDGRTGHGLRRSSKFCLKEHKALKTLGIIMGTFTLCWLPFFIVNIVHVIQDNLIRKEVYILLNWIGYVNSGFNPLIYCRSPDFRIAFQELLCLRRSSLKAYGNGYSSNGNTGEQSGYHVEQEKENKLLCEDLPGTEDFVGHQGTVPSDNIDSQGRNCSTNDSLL
Bfl-1 A1 inh = caspase 3/7 activation in MEF A1-2A-BIM cells, primary screen, A1 inhibitor project, cell-based, luminescence, HTS; Caspase-Glo 3/7 luminescence, 3 h; percent of clofoctol response, vehicle zero; caspase activation, % (test concentration not listed); hit rate 0.066% among 330,000;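 active = over half of replicate activation scores above 10%, or exactly half above 10 with the replicate mean above 10; inconclusive = replicate mean below 10 yet half the replicates above 10; inactive = over half of replicates below 10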;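 note: wells of about 30 µL received 50 nL stock; many hits fall short of the cut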
HNF4A DNA FP = change in binding of human HNF4A to DNA, primary screen, biochemical, fluorescence polarization, FITC-DNA. Hepatocyte nuclear factor 4-alpha (Homo sapiens), P41235. 1 h. activity change, % at 10 µM. hit rate 0.3% among 360,000; in the data active = activity change above about 30%, passing the limit was not always enough;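 note: controls were the assay level and a saturating level of protein; the project sought stronger binding though the title names inhibitors; some compounds called inactive have numbers as strong as hits; positive values seem to mean higher polarization but the record does not say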
UCH37 DUB inh = inhibitors of human UCH37 deubiquitinase, primary screen, biochemical, Ub-AMC cleavage, fluorescence; purified proteasome/UCH37; hit rate 0.33% among 330,000; Ubiquitin carboxyl-terminal hydrolase isozyme L5 (Homo sapiens), Q9Y5K5; inhibition, % (no concentration beside the values);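 active = mean of two replicates above 20%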;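 note: 0% = compound-free wells with enzyme and 100% = wells lacking proteasome; stock transfer was 100 nL into about 20 µL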
Target sequence (Q9Y5K5 whole entry, looked up): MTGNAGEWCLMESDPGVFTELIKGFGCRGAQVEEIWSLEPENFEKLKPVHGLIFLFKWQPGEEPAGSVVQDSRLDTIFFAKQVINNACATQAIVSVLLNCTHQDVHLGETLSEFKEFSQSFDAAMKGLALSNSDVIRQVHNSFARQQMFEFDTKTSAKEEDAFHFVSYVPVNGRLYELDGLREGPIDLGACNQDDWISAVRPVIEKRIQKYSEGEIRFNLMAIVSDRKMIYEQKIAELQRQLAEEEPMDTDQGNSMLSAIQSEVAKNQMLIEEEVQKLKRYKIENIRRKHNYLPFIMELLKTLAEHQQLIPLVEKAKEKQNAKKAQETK
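Material: Human UCH37 enzyme supplied as purified proteasome complex | Schedule: 30 min compound-proteasome preincubation then 25 min substrate reaction, room temperature | Detection: AMC fluorescence from Ub-AMC cleavage, excitation 355 nm, emission 460 nm | Benchmarks: Wells without proteasome as full block, compound-free enzyme plus substrate as uninhibited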
Ecoli growth = E. coli growth inhibition, primary screen, OD600. AID 1053175, 2014. OD600 absorbance (no concentration beside the values). hit rate 0.21% among 330,000. Escherichia coli growth, 23 h; stronger effect = lower value;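 active = OD600 absorbance below the run mean of sample wells minus 3.6 SD, in any replicate, cut at about 0.56 in these data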;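 note: stock transfer was 300 nL into about 60 µL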
LANA-H2A inh = blockers of LANA interaction with H2A/H2B – biochemical, FP readout, HTS, primary screen. inhibition, % (concentration not given with the values). cell-free LANA-H2A/H2B peptide, fluorescence polarization. hit rate 0.6% among 320,000; in the data active = inhibition mostly above about 10%, no sharp cut-off; inactive = mostly below about 6.7%;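 note: stock transfer was 7.5 nL into about 10 µL; 0% = median of vehicle wells and 100% = median of positive control wells; one replicate is shown; the record names a cut of 25% in any replicate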
Active calls of the source: *; ? = inconclusive; nt = not tested or not shown; & = joins results of further samples.

The opening 2 records, to show the layout:
mol	Ecoli growth	B2AR ag	Bfl-1 A1 inh	Vif A3G	LANA-H2A inh	UCH37 DUB inh	HNF4A DNA FP
O=C1CC(c2ccccc2)CC(O)=C1C=NCCN1CCNCC1 (stereo unspecified)	0.7	-7	-0.8	15%	-2.3	-0.9	-4.4
COCCN(C(=S)Nc1ccc(OC)cc1)C(C)c1cccs1 (stereo unspecified)	0.66	-1	0.6	-14%	-2.5	2.7	-1.3

The list itself, from the start:
mol	Ecoli growth	B2AR ag	Bfl-1 A1 inh	Vif A3G	LANA-H2A inh	UCH37 DUB inh	HNF4A DNA FP
O=C1CC(c2ccccc2)CC(O)=C1C=NCCN1CCNCC1 (stereo unspecified)	0.7	-7	-0.8	15%	-2.3	-0.9	-4.4
COCCN(C(=S)Nc1ccc(OC)cc1)C(C)c1cccs1 (stereo unspecified)	0.66	-1	0.6	-14%	-2.5	2.7	-1.3
CCOC(=O)[C@H]1[C@H]2COc3ccc(Cl)cc3[C@@H]2N2C(=O)CN(C)C(=O)[C@@]12C	nt	-1	0.4	nt	6.9	3.9	-1.0
Cc1c(-c2ccccc2)oc2c(C(=O)OCC(=O)Nc3ccc(C(N)=O)cc3)cccc2c1=O	0.73	32	0.0	-7%	28*	1.2	4.8
CCOc1ccc(N/C(N)=N/c2nc(C)cc(C)n2)cc1	0.65	14	0.2	nt	-1.6	0.7	-0.2
COc1ccc(NC(=O)Nc2ccc(C(C)C)cc2)cc1	0.66	-8	0.9	5%	-0.3	6.2	0.9
CC(C)(C)c1cc(C(=O)NCCN2CCCC2)cc(C(C)(C)C)c1	0.65	2	0.2	-3%	-0.5	3.5	2.2
Cc1cc(C)cc(Oc2ccc(N)cc2)c1	0.72	5	0.4	?	0.6	1.5	-1.5
O=C(CCC(=O)OCc1cccc([N+](=O)[O-])c1)Nc1ccccc1Cl	0.72	-45	0.4	-3%	-0.4	0.0	-4.7
CNS(=O)(=O)c1cccc(C(=O)OCc2cc(=O)n3cc(Br)ccc3n2)c1	0.7	-16	1.0	16%	5.9	-7.9	-0.8
Cc1ccc(Nc2nnc(-c3ccccc3N)o2)cc1C	0.68	2	-1.1	11%	-1.1	-179	2.3
O=C(NCCc1ccco1)c1nn(Cc2ccccc2)c(=O)c2ccccc12	0.74	-10	0.5	26%	-0.2	2.3	-5.5

Next part.
mol	Ecoli growth	B2AR ag	Bfl-1 A1 inh	Vif A3G	LANA-H2A inh	UCH37 DUB inh	HNF4A DNA FP
Cc1ccc(OCC(O)CN2CCN(Cc3ccc4c(c3)OCO4)CC2)cc1C (stereo unspecified)	0.63	-6	0.1	16%	-1.6	0.6	6.2
c1ccc(NC2=NCCN2CC2CCCC2)cc1	0.69	-5	-0.6	nt	-10	2.2	-1.7
O=C(NCc1ccc(Cl)cc1)c1noc2c1CCCCC2	0.69	-17	1.6	21%	-4.9	5.4	1.3
CC(C)Cc1csc(NC(=O)c2ccc(Br)cc2)c1C(=O)O	0.68	3	-5.7	-8%	0.6	0.0	3.4
Cc1ccccc1OCc1nc2ccc(S(=O)(=O)N3CCOCC3)cc2[nH]1	0.71	2	0.5	2%	2.7	-0.2	-2.0
COc1ccc(S(=O)(=O)N2CCC(C(=O)NCCC(=O)NCc3ccncc3)CC2)cc1	0.71	1	0.4	nt	-1.8	1.9	-5.0
O=C(CSc1nccc(=O)[nH]1)Nc1ccc(F)c(Cl)c1	0.63	-1	1.2	7%	1.1	3.8	-0.2
COC(=O)Nc1nnc(/C=C/c2ccc(OC)cc2)s1	0.7	7	0.5	nt	1.9	-88	2.7
COc1cc(OC)c(C2N(c3ccc(Cl)cc3)C(=O)C3CCCN32)cc1OC (stereo unspecified)	0.73	4	-0.5	8%	1.8	0.7	7.4
COc1ccc(CC(=O)NCc2ccccc2Cl)cc1S(=O)(=O)N1CCOCC1	0.68	0	0.4	-9%&-4%	-2.3	4.3	3.1
COc1ccc(NC(=O)Cc2nnc(SCC(=O)c3ccc(F)cc3)n2C)cc1	0.71	-5	0.2	-10%	1.2	1.6	0.0
COc1cc2oc3ccccc3c2cc1N(CC(=O)N(C)C)S(=O)(=O)c1ccc(C)cc1	0.77	-1	-0.3	-3%	-4.6	4.7	2.6

Continued:
mol	Ecoli growth	B2AR ag	Bfl-1 A1 inh	Vif A3G	LANA-H2A inh	UCH37 DUB inh	HNF4A DNA FP
CC(C)N1CCN(Cc2cccc(-n3cccn3)c2)CC1CCO (stereo unspecified)	0.65	8	0.3	5%	0.1	1.3	3.6
c1cc(CCCc2ccncc2)ccn1	0.66	-1	1.2	-7%	-2.8	2.3	1.7
Cc1cccc(/C=N\NC(=O)c2csnn2)c1	nt	-2	-9.1	?	-3.7	nt	2.9
CCCCCOC(=O)c1cc(=O)[nH]c2ccccc12	0.75	0	1.4	0%	-1.6	-19	-0.1
CCCS(=O)(=O)N1CCN(Cc2ccco2)CC1	0.71	-7	0.5	0%	-1.3	1.5	-3.1
CCCCn1c(=S)[nH]c2cc(S(=O)(=O)N3CCCCC3)ccc21	0.72	-1	0.7	0%	1.5	2.5	-4.5
CCOC(=O)N1CCN(C(=O)c2c(-c3c(Cl)cccc3Cl)noc2C)CC1	0.63	-5	-0.6	nt	-2.4	5.3	2.6
Cc1nnc(SCc2ccccc2C#N)n1-c1ccccc1	0.75	3	1.1	1%	-0.1	4.0	2.8
O=C(CSc1ncccn1)NCc1ccc2c(c1)OCO2	0.69	-11	0.1	nt	-1.1	0.3	2.8
Cc1c(NS(=O)(=O)c2ccc(N=NN(C)C)cc2)c(=O)n(-c2ccccc2)n1C	0.64	-6	1.1	nt	-0.4	6.5	1.9
COc1ccc(-c2noc(CCC(=O)N3CCN(c4ccc(C(F)(F)F)cc4)CC3)n2)cc1	0.68	3	nt	nt	nt	2.2	-3.4
Cc1cccc(CC(Cc2nc3ccccc3[nH]2)c2nc3ccccc3[nH]2)c1 (stereo unspecified)	0.79	16	0.1	11%	1.6	-0.8	-0.1

Additional records.
mol	Ecoli growth	B2AR ag	Bfl-1 A1 inh	Vif A3G	LANA-H2A inh	UCH37 DUB inh	HNF4A DNA FP
CC(=O)Nc1cccc2c1OCCO2	0.72	-1	0.6	-2%	4.9	4.1	0.8
C[C@H](C(=O)NCc1ccccc1)C(=O)c1ccccc1	0.67	18	?	-2%	1.1	0.4	0.8
COc1ccc(C(=O)NCCc2nnc(SCC(=O)Nc3ccc(Br)cc3)n2C)cc1	0.68	-4	0.4	1%	-2.9	2.9	1.1
Cc1ccc(Cn2cc(/C=N/Nc3ccc([N+](=O)[O-])cn3)c3ccccc32)cc1	nt	-75	0.5	nt	-13	nt	54*
COc1ccc(C(=O)NCC(=O)NCC(=O)OCC(=O)C(C)(C)C)cc1	0.73	-3	0.2	-5%	2.9	3.8	-3.0
COc1ccc(S(=O)(=O)N2CC(O)C[C@H]2C(=O)OCC(=O)N2CCCCCC2)cc1 (stereo partly specified)	0.66	2	-0.6	nt	0.2	-0.3	-0.5
Cc1cccc(C(=O)NCc2nnc(SCC(=O)Nc3nncs3)n2C)c1	0.6	6	-0.7	nt	1.1	2.7	-1.9
O=C(COC(=O)c1n[nH]c(=O)c2ccccc12)c1ccccc1	0.76	-2	-0.3	1%	-1.0	2.5	-2.7
CCCCCC(=O)Nc1ccc2oc(-c3cncc(Br)c3)nc2c1	0.65	-2	-3.9	1%	-5.1	-17	0.6
CCOC(=O)C1=C(c2ccccc2)NC(SCC(=O)Nc2cccc(C)c2)=C(C#N)C1c1ccco1 (stereo unspecified)	0.74	-1	-0.2	-1%	-3.8	-1.6	2.1
CCCCNC(=O)NC12CC3CC(CC(C3)C1)C2	0.68	-2	-0.5	12%	-2.2	3.0	-3.0
c1ccc(-c2cnnc(-c3ccccn3)n2)cc1	0.71	-21	-6.1	nt	-0.6	1.0	6.2

(cont.)
mol	Ecoli growth	B2AR ag	Bfl-1 A1 inh	Vif A3G	LANA-H2A inh	UCH37 DUB inh	HNF4A DNA FP
CCOC(=O)c1cccc(NC(=O)CCNS(=O)(=O)c2ccc3c(c2)CCN3C(=O)CC)c1	0.71	-8	-0.4	-5%	-0.9	2.2	-0.6
O=c1c2ccccc2c(C=NCCCN2CCOCC2)c(O)n1Cc1ccc2c(c1)OCO2	0.67	0	0.2	1%	-2.1	3.8	-6.5
CC(=O)Nc1ccc(S(=O)(=O)N2CCN(CC3CC4C=CC3C4)CC2)cc1 (stereo unspecified)	0.68	-4	-0.5	0%	7.7	1.6	0.5
Cc1ccc(S(=O)(=O)NC(=O)NC(C)c2ccc(F)cc2)cc1 (stereo unspecified)	0.66	3	-0.7	0%	-0.2	0.1	-1.9
CCOC(=O)/C(C#N)=C/c1ccc(OCC(=O)Nc2ccccc2)c(OC)c1	0.74	46*	0.2	0%	-0.1	-44	2.2
CN(Cc1nc2ccc(F)cc2[nH]1)Cc1c(C(=O)N(C)C)nc2ccc(Cl)cn12	0.69	-4	0.2	nt	7.7	2.0	6.7
Cc1c(Br)c([N+](=O)[O-])nn1CC(=O)NCc1cccnc1	0.68	-2	0.1	3%	4.9	3.3	1.4
CCCn1c(SCC(=O)N2CCN(CC)CC2)nc2c1c(=O)n(C)c(=O)n2C	0.69	2	0.9	nt	-4.4	0.4	2.4
CC(=O)Nc1nnc(SCC(=O)Nc2ccc3c(c2)OCCO3)s1	0.71	-4	0.2	nt	3.5	1.3	-3.0
Cc1noc(C)c1NC(=O)N(C)C[C@H]1Oc2ccc(NC(=O)C3CCCCC3)cc2C(=O)N([C@H](C)CO)C[C@@H]1C	0.77	-8	0.0	nt	-3.8	1.9	2.2
Cc1ccc(NC(=O)CN(c2ccccc2)S(=O)(=O)N(C)C)cc1	0.7	8	-0.1	17%	-1.4	0.6	-4.4
Cc1ccc(NC(=O)CSc2nc(N)c(-c3ccccc3)c(=O)[nH]2)cc1Cl	0.72	-2	1.4	13%	0.0	-10	3.5

The listing continues:
mol	Ecoli growth	B2AR ag	Bfl-1 A1 inh	Vif A3G	LANA-H2A inh	UCH37 DUB inh	HNF4A DNA FP
Cc1cc(SCCC(=O)O)nc2ccccc12	0.72	4	1.1	-1%	5.4	0.5	0.9
CC1=NNC(=O)C1CCC(=O)N/N=C(\C)c1ccccc1 (stereo unspecified)	nt	-3	-1.0	0%	1.2	nt	0.3
Cc1ccc(NC(=O)COC(=O)Cc2ccccc2)cc1S(=O)(=O)N1CCOCC1	0.68	-3	0.1	nt	0.7	0.0	-1.4
O=C(Nn1cnc2ccccc2c1=O)c1ccc(Cl)c([N+](=O)[O-])c1	0.68	-1	0.1	0%	-1.2	1.8	-1.3
S=C1NC2=C(C(c3ccc(Br)cc3)N1)N1CCC2CC1 (stereo unspecified)	0.69	-1	0.7	-3%	3.1	-0.4	-2.6
Cc1ccc(C(=O)C2COC(=O)C2)cc1 (stereo unspecified)	0.66	-2	0.7	-3%	-7.3	2.8	1.0
CCCc1nnc(SCC(=O)O)n1/N=C/c1ccc2c(c1)OCO2	nt	5	-0.2	8%	2.5	nt	-2.4
CC1CCC(N2CC(=O)N(Cc3ccc4c(c3)OCO4)C(c3ccc(F)cc3)C2=O)CC1 (stereo unspecified)	0.68	-11	-0.1	10%	2.5	4.2	0.8
COc1cc(C(=O)NCc2ccc3c(c2)OCO3)ccc1OCc1c(C)noc1C	0.74	1	-0.4	12%	-0.7	1.4	4.1
O=C(COC(=O)c1ccc(Cl)nc1)Nc1ccc(N2CCCCC2)cc1	0.7	4	0.6	-4%	-0.2	0.3	1.8
